# CtBP-E1A inh – inhibitors of CtBP/E1A interaction | 0.49% of 340,000 active | AID 651724 | activity change, % (concentration not given with the values) | AlphaScreen GST-E1A/His-CtBP binding, 1536-well; stronger effect = lower value; control for the full effect not named in the record; in the data active means activity change below about -65%; inconclusive means about -30% to -65%; inactive means above about -30%; also: % is scaled to controls: 0 for no effect and ±100 for the full control effect
#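 Homogeneous bead-based format: GST-tagged E1A captured on glutathione donor beads, His-tagged CtBP on nickel acceptor beads; compounds precede bead addition by 2 h at 37 °C.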
# Sfp inh – inhibitors of Bacillus subtilis Sfp phosphopantetheinyl transferase; Potency, µM, for the others: max response, negative = inhibition, usual class: inhibitors; 3.5% of 310,000 active; Q9F4F7; Biochemical Sfp PPTase activity, qHTS; active = well fitted inhibition curve with a large enough effect; inconclusive = small, poorly fitted or top-dose-only effect, or another doubt; inactive = no such curve, though single readings can be large or run the other way;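 also: the enzyme is Sfp with the accession as filed and its product quenches rhodamine fluorescence; potency is read from the fitted curve at half-maximal effect; 0% = enzyme reaction without inhibitor and -100% = no enzyme wells; top concentration of the series not given in the record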
#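 Buffer: 50 mM Hepes-Na pH 7.6, 10 mM MgCl2, 0.01% Nonidet P-40, 0.01% BSA. Enzyme 15 nM, pre-exposed to compound 15 min; substrates then added and fluorescence change tracked over 30 min.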
# gsp antagonist – antagonizes gsp, the McCune-Albright syndrome mutation; gsp-mutant cells, cAMP HTRF, 30 min; control for the full effect not named in the record; Potency, µM (series often up to 76.9 µM), without a hit: top-dose activity change, negative = inhibition, hits mostly inhibitors; 0.4% of 340,000 active; active = falling curve of any shape with a large fitted effect; inconclusive = falling curve, mostly with a smaller effect; inactive = flat or rising curve; cell line not stated here;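 also: intracellular cAMP measured with PDE inhibitor Ro 20-1724 present during compound exposure; potency is read from the fitted curve at half-maximal effect; % is scaled to controls: 0 for no effect and ±100 for the full control effect; nearly all actives have a fitted effect of over 65% in size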
#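 G418-selected cells were plated in DMEM/10% FBS for 16-24 h at 37C, then treated with compounds plus the PDE inhibitor […] (300 uM solution added) for 30 min at 37C. Intracellular cAMP was measured by HTRF after 30 min lysis at room temperature.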
# Menin-MLL FL inh – inhibitors of human menin-MLL interaction, wild-type MLL peptide; AID 1766; Fluorescence polarization, fluorescein-MLL peptide displacement from menin; FP activity change, % at 61.4 µM; 290,000 tested, under 10 active; inconclusive = falling polarisation curve, or a change in total fluorescence; inactive = total fluorescence flat and polarisation flat or rising; no compound was filed as active; the % refers to the polarisation; negative = inhibition;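 also: % of control where 0% means no effect; inhibitors lower the polarisation; unlabelled MLL peptide was the positive control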
# ClpP mod – qHTS Assay for Activators of ClpP. 1.9% of 340,000 active. ATP-dependent Clp protease proteolytic subunit (Bacillus subtilis (strain 168)), P80244. AID 651965, 2013. purified B. subtilis ClpP, FRET peptide cleavage, 20 min. Potency, µM (titrated, usually from 57.5 µM), inactives show at the highest dose activity change, negative = active; active = well fitted falling curve with a large enough effect; inconclusive = small, poorly fitted or top-dose-only effect; inactive = no such curve, though single readings can be large or run the other way; also: potency is read from the fitted curve at half-maximal effect; the source files actives as falling curves though it sought activators and does not explain the sign; nearly all actives have a fitted effect of over 65% in size; many hits overshoot -100%
# Target sequence (P80244 whole entry, looked up): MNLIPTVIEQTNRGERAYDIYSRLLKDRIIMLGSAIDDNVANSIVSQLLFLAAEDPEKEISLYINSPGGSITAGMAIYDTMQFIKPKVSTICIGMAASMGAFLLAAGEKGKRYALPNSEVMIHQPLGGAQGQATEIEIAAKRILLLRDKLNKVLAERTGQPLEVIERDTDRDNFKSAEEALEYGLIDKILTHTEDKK
#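 Purified B. subtilis ClpP, 10 microg/mL final in Tris/HCl pH8 with KCl, BSA, glycerol and Tween-20, cleaved an Abz/nitrotyrosine-quenched decapeptide. Fluorescence (ex 320, em 430) was read at 0 and 20 min at room temperature. Delta was normalized to 5.8 microM ADEP and DMSO/no-enzyme controls.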
# TRPV1 potentiator – human TRPV1 potentiation; TRPV1-expressing cells, Fluo-8 calcium influx, capsaicin EC20 potentiation; host cell line not named in the record; control for the full effect not named in the record; AID 540277; 0.02% of 320,000 active; potentiation, % at 8.33 µM; active means potentiation above 80%; inconclusive means 30% to 80%; inactive means below 30%; also: 0% is about no effect
# Target sequence (Q8NER1 whole entry, looked up): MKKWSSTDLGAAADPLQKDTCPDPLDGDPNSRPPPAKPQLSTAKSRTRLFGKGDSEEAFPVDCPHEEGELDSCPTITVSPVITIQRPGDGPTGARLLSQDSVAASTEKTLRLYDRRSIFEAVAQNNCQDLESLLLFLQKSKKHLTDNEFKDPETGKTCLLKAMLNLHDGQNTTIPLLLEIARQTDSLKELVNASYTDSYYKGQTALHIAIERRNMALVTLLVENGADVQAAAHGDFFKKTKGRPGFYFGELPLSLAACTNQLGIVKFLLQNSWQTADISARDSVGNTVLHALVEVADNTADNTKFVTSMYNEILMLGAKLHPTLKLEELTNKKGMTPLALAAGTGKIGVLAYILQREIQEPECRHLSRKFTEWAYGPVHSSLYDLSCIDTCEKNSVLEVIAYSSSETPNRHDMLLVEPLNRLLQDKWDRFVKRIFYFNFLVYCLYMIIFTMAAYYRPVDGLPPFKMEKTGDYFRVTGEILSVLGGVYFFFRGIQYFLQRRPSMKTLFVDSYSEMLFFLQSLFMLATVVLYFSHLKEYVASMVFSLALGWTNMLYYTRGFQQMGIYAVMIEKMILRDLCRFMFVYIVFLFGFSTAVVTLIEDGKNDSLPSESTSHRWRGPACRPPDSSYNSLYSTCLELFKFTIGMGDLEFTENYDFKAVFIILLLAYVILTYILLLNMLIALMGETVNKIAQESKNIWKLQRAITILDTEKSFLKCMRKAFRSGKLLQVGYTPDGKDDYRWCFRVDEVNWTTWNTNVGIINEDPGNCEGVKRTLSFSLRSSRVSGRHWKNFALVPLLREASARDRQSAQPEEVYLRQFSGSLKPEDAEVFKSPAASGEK
#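 Cells expressing TRPV1 were dye-loaded with Fluo-8 and read kinetically: 10 s baseline, 3 min after compound (agonist portion), then 2 min after EC20 capsaicin (allosteric enhancer portion). Calcium-bound dye fluorescence at 480/520 nm.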
# gsp ag – activates gsp, the McCune-Albright syndrome mutation; gsp mutant cells, cAMP HTRF, 30 min; control for the full effect not named in the record; Potency, µM (highest dose often 76.9 µM), without a hit: top-dose activation (cAMP increase), actives largely listed as activators; 0.13% of 340,000 active; active = well fitted activation curve with a large enough effect; inconclusive = small, poorly fitted or top-dose-only effect, or another doubt; inactive = no such curve, though single readings can be large or run the other way; cell line not stated here;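 also: phosphodiesterase inhibitor Ro 20-1724 added with compounds to block cAMP breakdown; potency is read from the fitted curve at half-maximal effect; nearly all actives have a fitted effect of over 60% in size; about a fifth of the inactives were tested at one dose only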
#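 Cells in DMEM/10% FBS with G418 were pretreated with compounds in DMSO plus […] (300 uM stock) for 30 min at 37C. cAMP was measured by HTRF (cAMP-d2 plus anti-cAMP antibody-K) after 30 min at room temperature.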
# Active calls of the source: *; ? = inconclusive; . = no result given; & = joins results of further samples; [ ] = dose if it differs, or a comment.
SMILES,CtBP-E1A inh,Sfp inh,gsp antagonist,Menin-MLL FL inh,ClpP mod,TRPV1 potentiator,gsp ag
O=C(Cc1ccc(Cl)cc1)Nc1cc(S(=O)(=O)N2CCOCC2)ccc1N1CCCC1,.,9%,-25%,0.0,.,-6,-19%[15.4 µM]
COCCNc1oc(/C=C/c2ccccc2)nc1C#N,20,0%,-5%,1.1,0.3%,-29,13%[15.4 µM]
CCN(CC)CCc1nc(-c2ccccc2)no1,-17,8%,-5%,-3.7[24.8 µM],-2.1%,12,.
COCCNC(=O)C(c1cccs1)N(Cc1ccccc1)C(=O)Cn1nnc2ccccc21 (configuration not stated),2,-5%,-10%,1.0,2.4%,5,18%
N#CC1=C(N)Oc2nc(-c3ccccc3)[nH]c2C1c1cccnc1 (configuration not stated),-1,17%,-1%,-0.1,0.5%,0,-1%
CCN1CCN(CC(=O)Nc2c(C(=O)OC)[nH]c3cccc(Cl)c23)CC1,.,4%,.,3.4,.,1,.
Cc1cc(-c2ccccc2)nc2c(Br)c(C(=O)O)nn12,-24,.,-10%,.,-2.2%,.,-5%
COc1cc(C(=O)NCc2nnc(SCC(=O)N3CCCc4ccccc43)o2)cc(OC)c1OC,5,14%,8%,-0.7,.,12,6%[15.4 µM]
CCCOc1ccc(C(=O)NC(=S)Nc2nc3ccc(C)cc3s2)cc1,.,22%,.,0.4,.,4,.
COc1ccc(NC(=O)CCCn2cnc3ccccc3c2=O)c(OC)c1,.,4%,-1%,-1.3,2.5%,-6,12%
Cc1ccnc(NS(=O)(=O)c2ccc(NC(=O)C3CC=CCC3C(=O)O)cc2)n1 (configuration not stated),6,18%,-9%,0.5,.,-4,21%[15.4 µM]
CCC(Oc1ccccc1)C(=O)Nc1ccccc1OC (configuration not stated),6,4%,-11%,1.6,0.7%,-10,-57%[inhibitor]
COc1ccc2oc(=O)c(C(=O)NC(C)c3ccccc3)cc2c1 (configuration not stated),3,-2%,-14%,-4.1,.,13,-3%
Cc1nnc(NC(=O)c2nc(S(=O)(=O)Cc3ccccc3)ncc2Cl)s1,-6,?,?,.,0.7%,8,-8%[15.4 µM]
CC1=NN(C(=O)c2ccc(Cn3nc(C)c(Br)c3C)cc2)C(O)(C(F)(F)F)C1 (configuration not stated),-2,-2%,-1%,-0.1,0.2%,14,15%
CCCn1nnc(NCc2ccc(OCc3cccs3)c(OC)c2)n1,-7,-2%,-8%,-0.7,-1.2%,-11,6%
O=C(Nc1nc2ccc(F)cc2s1)c1cccs1,1,15%,-7%,-7.4,-19%,4,-29%
COc1ccc(-n2nnnc2CNC(=O)C(=O)c2c(C)[nH]c3ccccc23)cc1,-2,.,-5%,.,.,?,-8%[15.4 µM]
Cc1ccc(-c2csc(N/N=C/C=C/c3ccccc3)n2)cc1,2,-23%,6%,8.7,-11%,14,-4%
Cc1nc2ccccc2nc1N1CCOCC1,0,-1%,13%,0.3,-0.7%,6,1%
Cc1ccccc1Nc1nc2nonc2nc1N1CCOCC1,1,7%,14%,-1.9,0.2%,-6,10%
COc1ccc(-c2[nH]n(-c3ccc([N+](=O)[O-])cc3)c(=O)c2C=NCc2ccccc2)cc1,2,-15%,0%,3.6,-0.5%,4,3%
NC(=O)C1CCN(c2cc(Cl)nc(N)n2)CC1,-15,-16%,2%,-1.1,.,-7,-4%[15.4 µM]
COc1c(Cl)c(=O)oc2ccc(Cl)cc12,3,.,.,.,-15%,.,-25%
Cc1ccccc1CN1CCC(Oc2ccc(C(=O)NCc3ccccn3)cc2)CC1,1,5%,0%,0.2,-0.8%,-6,?

# Continued:
SMILES,CtBP-E1A inh,Sfp inh,gsp antagonist,Menin-MLL FL inh,ClpP mod,TRPV1 potentiator,gsp ag
CCCNC(=O)c1oc2ccc3c(c2c1C)C(O)CC(C)(C)O3 (configuration not stated),8,9%,0%,-8.2,2.9%,-3,-6%
O=c1c2c(c(-c3ccccc3)nn1Cc1ccccc1)CCCC2,2,-10%,-30%,12,-1.1%,-19,-17%
O=C(CN1CCN(c2ccccc2)CC1)NC(=O)NCc1ccco1,-4,-9%,16%,9.6,0.6%,-10,-22%
CN(CC1COc2ccccc2O1)C(=O)Cn1cc(C(F)(F)F)ccc1=O (configuration not stated),8,.,10%,.,-0.9%,.,9%
CCOC(=O)NC(=O)CSc1ccc(S(=O)(=O)N(C)C2CCCCC2)cn1,.,.,-24%,.,2.0%,-29,-23%
Cc1c(Br)c([N+](=O)[O-])nn1CC(=O)Nc1c(C)n(C)n(-c2ccccc2)c1=O,.,-17%,-18%,6.9,1.8%,21,-17%
O=C(NCCc1ccc2c(c1)OCCO2)c1cc2ccccc2o1,2,-12%,?,4.0,-0.8%,-17,-19%
CCNC(=S)NNC(=O)c1ccc2ncccc2c1,7,13%,0%,-1.5,.,-1,-16%
O=C1CCCN2N=C(SCC(=O)Nc3ccc([N+](=O)[O-])cc3)SC2=N1,11,0%,6%,0.7,0.4%,0,-5%[15.4 µM]
c1ccc2ncccc2c1,10,.,12%,.,0.3%&-23%,.,.
COc1ccc(C2=NN(C(=O)COC(=O)c3ccc(NC(=O)CC#N)cc3)C(c3ccco3)C2)cc1 (configuration not stated),.,.,0%,.,-15%,-14,-15%
O=C(NCc1cccnc1)c1nn2cccnc2c1Cl,.,9%,9%,1.4,-1.3%,12,12%
COc1ccc(-n2c(/C=C(\C)O)nc(=O)c3c(C)cc(C)nc32)cc1,17,-10%,?,6.8,1.2%,-3,15%
Cc1ccc2c(c1)NC(=O)C(CC(=O)NCCCN1CCN(C3CCCCC3)CC1)O2 (configuration not stated),.,7%,.,-1.5,.,-7,.
CN(C(=O)c1cccc(NC(=O)Cc2ccc(NC(=O)C3CCCN(C(=O)C4CCCC4)C3)cc2)c1)C1CCC1 (configuration not stated),-9,.,-10%,.,-2.4%,.,.
O=C(NC1CCCCC1)c1cc([N+](=O)[O-])ccc1N1CCCCC1,-15,-2%,-14%,1.6,-0.9%,-31,10%
CCOC(=O)c1cc(-c2ccc3c(c2)OCCO3)nc2c1c(C)nn2CCC#N,16,-4%,-19%,7.5,?,6,39%
Cc1c(C(=O)O)sc(S(=O)(=O)N2CCNCC2)c1C(=O)O,.,-8%,.,3.8,.,-6,.
O=C(N/N=C/c1ccc([N+](=O)[O-])cc1)c1ccc(NS(=O)(=O)c2cccs2)cc1,.,.,?,.,0.8%,7,-12%
O=C(c1cc(-c2cccs2)nc2ccccc12)N1CCN(S(=O)(=O)c2ccccc2)CC1,-2,1%,-3%,2.1,25µM*,3,-9%
Cc1cccc(/C=N/NC(=O)c2ccc(Br)cc2)c1,1,-4%,-10%,3.3,?,-14,-13%
O=C(Oc1ccc(=O)n(-c2ccccc2)n1)c1ccc(F)cc1,20,3%,5%,5.5,0.2%,-6,0%
COc1ccc(NC(=O)CSc2nc3sc4c(c3c(=O)n2-c2ccc(OC)cc2)CCN(C)C4)cc1,.,-5%,?,13,-16%,-7,-28%
COc1cc(S(=O)(=O)n2ccnc2)ccc1Br,.,-19%,9%,-6.4,-0.1%,3,-28%
CCN(C(=O)C1CC1)C1CCS(=O)(=O)C1 (configuration not stated),-18,.,6%,.,.,-4,-8%[15.4 µM]

# One compound at a time, from the list above. Screens in order: CtBP-E1A inh, Sfp inh, gsp antagonist, Menin-MLL FL inh, ClpP mod, TRPV1 potentiator, gsp ag
# Profile of `COc1cc(S(=O)(=O)n2ccnc2)ccc1Br` = ., -19%, 9%, -6.4, -0.1%, 3, -28%
# Profile of `CCNC(=S)NNC(=O)c1ccc2ncccc2c1` = 7, 13%, 0%, -1.5, ., -1, -16%
# Profile of `COc1ccc(NC(=O)CSc2nc3sc4c(c3c(=O)n2-c2ccc(OC)cc2)CCN(C)C4)cc1` = ., -5%, ?, 13, -16%, -7, -28%

# (continued)
SMILES,CtBP-E1A inh,Sfp inh,gsp antagonist,Menin-MLL FL inh,ClpP mod,TRPV1 potentiator,gsp ag
COc1ccc(-n2[nH]c(C)cc2=O)cc1,4,-10%,-6%,-0.4,1.1%,0,4%
O=C(Nc1ccccc1)OCc1ccccn1,-3,9%,3%,0.5,-0.8%,-13,1%
CC(C)OC(=O)CN1C(=O)C(C)(C)Oc2ccc(C(=O)NC(C)(C)C)cc21,4,2%,-14%,5.2,1.4%,?,9%
C#CCOC(=O)c1ccccc1C(=O)n1nnc2ccccc21,14,-10%,-15%,-0.6,0.9%,20,-42%[inhibitor]
COc1ccc(OC)c(S(=O)(=O)CC(O)CS(=O)(=O)c2ccccc2)c1 (configuration not stated),6,4%,3%,.,-0.1%,1,-23%
Cc1c(Cl)cccc1NC(=O)c1ccccc1-c1ccccc1C(=O)O,-11,23%,4%,-2.2,-3.4%,12,27%
CC1Cc2cc(C(=O)O)ccc2O1 (configuration not stated),-1,9%,5%,0.8,-1.4%,15,-4%
O=c1c2ccccc2nc2c3ccccc3c3nncn3n12,-26,16%,-7%,-0.6,-25%,-3,-12%
COC(=O)CC/C(O)=C1\C(=O)CC(C)(C)CC1=NCCc1nc2ccccc2[nH]1,.,9%,-14%,0.9,0.9%,1,-10%
CC1CCCCN1CCNC(=O)c1cc2c(=O)n(C)c3ccccc3c2n1C (configuration not stated),-12,12%,1%,?,4.4%&4.5%,.,-19%
O=C(c1ccco1)N1CCC(N2CCN(c3ccccc3)CC2)CC1,.,-19%,1%,1.0,0.3%,13,-6%
O=C(C1CC1)N1CCc2cc(S(=O)(=O)NCCC3=CCCCC3)ccc21,5,-2%,-10%,1.9,0.4%,14,-29%
COc1ccc(CN(CCC(c2ccco2)C(C)C)C(C)=O)cc1OC (configuration not stated),.,-10%,-4%,-6.1,0.9%,4,-23%

# By substructure: the entries above with an aryl thioether with sulfur outside any ring.
SMILES,CtBP-E1A inh,Sfp inh,gsp antagonist,Menin-MLL FL inh,ClpP mod,TRPV1 potentiator,gsp ag
COc1cc(C(=O)NCc2nnc(SCC(=O)N3CCCc4ccccc43)o2)cc(OC)c1OC,5,14%,8%,-0.7,.,12,6%[15.4 µM]
CCOC(=O)NC(=O)CSc1ccc(S(=O)(=O)N(C)C2CCCCC2)cn1,.,.,-24%,.,2.0%,-29,-23%
COc1ccc(NC(=O)CSc2nc3sc4c(c3c(=O)n2-c2ccc(OC)cc2)CCN(C)C4)cc1,.,-5%,?,13,-16%,-7,-28%

# High-throughput results (PubChem)
